# Ran FRET: inhibitors of Ran–importin-beta complex formation, primary screen, biochemical, CFP-Ran/YFP-importin-beta FRET, RCC1, cell-free (AID 434961); 0.2% of 7,700 active; Regulator of chromosome condensation (Homo sapiens) + GTP-binding nuclear protein Ran …; inhibition, %; CFP-Ran/YFP-importin-beta FRET, cell-free; active compounds read high;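 active = more than half of the replicate wells above 15% inhibition; inconclusive = exactly half above it; inactive = fewer than half above it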;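 also: 0% = DMSO wells and 100% inhibition = RanGDP control wells on each plate; stock of unstated strength diluted about 400-fold; mean of two wells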
# Numbers without * were called inactive; ? = inconclusive.
entry	Structure	Ran FRET
1	C[C@H]1CN([C@@H](C)CO)C(=O)c2cccc(NC(=O)NC3CCCCC3)c2O[C@@H]1CN(C)Cc1ccc2c(c1)OCO2	-1.3
2	C[C@@H]1CN([C@H](C)CO)C(=O)CCCn2nncc2CO[C@@H]1CN(C)Cc1ccc(C(F)(F)F)cc1	2.5
3	Cc1noc(C)c1S(=O)(=O)N(C)C[C@@H]1Oc2c(cccc2N(C)C)C(=O)N([C@H](C)CO)C[C@H]1C	-0.5
4	C[C@H]1CN([C@@H](C)CO)C(=O)Cc2cc(NS(C)(=O)=O)ccc2O[C@H]1CN(C)S(=O)(=O)c1cccs1	-2.1
5	C[C@H]1CN([C@@H](C)CO)C(=O)c2cccc(NS(C)(=O)=O)c2O[C@H]1CN(C)Cc1ccccc1	1.8
6	CC(C)NC(=O)N(C)C[C@H]1OCc2cn(nn2)CCCC(=O)N([C@H](C)CO)C[C@H]1C	-4.7
7	C[C@@H]1CN([C@H](C)CO)C(=O)Cc2cc(NC(=O)Cc3cn(C)c4ccccc34)ccc2O[C@@H]1CN(C)C(=O)Nc1ccccc1	1.9
8	C[C@@H]1CN([C@H](C)CO)C(=O)c2cc(NC(=O)c3ccncc3)ccc2O[C@@H](C)CCCCO[C@H]1CN(C)C	-3.5
9	Cc1noc(C)c1NC(=O)N(C)C[C@@H]1Oc2c(NC(=O)C3CCOCC3)cccc2C(=O)N([C@H](C)CO)C[C@H]1C	-3.1
10	COc1ccc(CN(C)C[C@H]2Oc3ccc(NC(=O)C4CC4)cc3CC(=O)N([C@@H](C)CO)C[C@@H]2C)cc1	-5.9

# Structural class, the compounds so far containing sulfur
entry	Structure	Ran FRET
3	Cc1noc(C)c1S(=O)(=O)N(C)C[C@@H]1Oc2c(cccc2N(C)C)C(=O)N([C@H](C)CO)C[C@H]1C	-0.5
4	C[C@H]1CN([C@@H](C)CO)C(=O)Cc2cc(NS(C)(=O)=O)ccc2O[C@H]1CN(C)S(=O)(=O)c1cccs1	-2.1
5	C[C@H]1CN([C@@H](C)CO)C(=O)c2cccc(NS(C)(=O)=O)c2O[C@H]1CN(C)Cc1ccccc1	1.8

# Carrying on.
entry	Structure	Ran FRET
11	COc1ccc(CN(C)C[C@@H]2Oc3c(NS(=O)(=O)c4c(C)noc4C)cccc3C(=O)N([C@H](C)CO)C[C@@H]2C)cc1	2.1
12	C[C@@H]1CN([C@H](C)CO)C(=O)c2cccc(NC(=O)C3CCOCC3)c2O[C@H]1CN(C)Cc1ccncc1	-1.5
13	C[C@@H]1CN([C@@H](C)CO)C(=O)CCCn2cc(nn2)CO[C@@H]1CN(C)Cc1ccccc1	?
14	C[C@H](CO)N1C[C@H](C)[C@H](CN(C)Cc2ccncc2)Oc2ncc(Br)cc2C1=O	6.1
15	Cc1noc(C)c1NC(=O)N(C)C[C@H]1Oc2c(NC(=O)c3cnccn3)cccc2C(=O)N([C@@H](C)CO)C[C@@H]1C	3.1
16	Cc1noc(C)c1NC(=O)Nc1cccc2c1O[C@H](CN(C)Cc1ccc(C(=O)O)cc1)[C@H](C)CN([C@H](C)CO)C2=O	?
17	Cc1noc(C)c1NC(=O)N(C)C[C@H]1Oc2c(NC(=O)Nc3ccc(C(F)(F)F)cc3)cccc2C(=O)N([C@H](C)CO)C[C@H]1C	-2.7
18	C[C@H](CO)N1C[C@H](C)[C@@H](CN(C)C(=O)NC2CCCCC2)Oc2ccc(N(C)C)cc2C1=O	3.4
19	C[C@@H]1CN([C@H](C)CO)C(=O)Cc2cc(NC(=O)CCN3CCOCC3)ccc2O[C@@H]1CN(C)C(=O)Nc1ccc2c(c1)OCO2	-1.8
20	C[C@H](CO)N1C[C@H](C)[C@H](CN(C)Cc2ccc(C(F)(F)F)cc2)Oc2ccc(NS(=O)(=O)c3cn(C)cn3)cc2CC1=O	?

# Arranged by heavy-atom count (ascending): some entries from above.
entry	Structure	Ran FRET
15	Cc1noc(C)c1NC(=O)N(C)C[C@H]1Oc2c(NC(=O)c3cnccn3)cccc2C(=O)N([C@@H](C)CO)C[C@@H]1C	3.1
16	Cc1noc(C)c1NC(=O)Nc1cccc2c1O[C@H](CN(C)Cc1ccc(C(=O)O)cc1)[C@H](C)CN([C@H](C)CO)C2=O	?
20	C[C@H](CO)N1C[C@H](C)[C@H](CN(C)Cc2ccc(C(F)(F)F)cc2)Oc2ccc(NS(=O)(=O)c3cn(C)cn3)cc2CC1=O	?

# Later entries:
entry	Structure	Ran FRET
21	C[C@H](CO)N1C[C@H](C)[C@H](CN(C)C)OCCCC[C@H](C)Oc2ccc(NC(=O)c3ccncc3)cc2C1=O	5.4
22	C[C@H](CO)N1C[C@H](C)[C@H](CN(C)Cc2ccc(Cl)c(Cl)c2)Oc2ccc(NS(C)(=O)=O)cc2CC1=O	0.1
23	C[C@H]1CN([C@@H](C)CO)C(=O)CCCn2cc(nn2)CO[C@@H]1CN(C)C(=O)c1cc(-c2ccccc2)on1	-1.3
24	C[C@@H]1CN([C@H](C)CO)C(=O)Cc2cc(NS(=O)(=O)c3ccccc3)ccc2O[C@@H]1CN(C)C(=O)Nc1ccccc1	-4.9
25	CNC[C@H]1Oc2c(NC(=O)c3ccc(-c4nccs4)cc3)cccc2C(=O)N([C@H](C)CO)C[C@@H]1C	?
26	C[C@H](CO)N1C[C@H](C)[C@H](CN(C)C(=O)Nc2ccc3c(c2)OCO3)Oc2ccc(NS(=O)(=O)c3ccc(Cl)cc3)cc2C1=O	-0.2
27	C[C@H](CO)N1C[C@H](C)[C@@H](CN(C)Cc2ccc(C(=O)O)cc2)Oc2ccc(NC(=O)Nc3ccc(F)cc3)cc2CC1=O	-0.1
28	COc1ccc(S(=O)(=O)N(C)C[C@H]2Oc3c(NS(=O)(=O)c4cccs4)cccc3C(=O)N([C@@H](C)CO)C[C@@H]2C)cc1	4.2
29	C[C@@H]1CCCCO[C@H](CN(C)C)[C@H](C)CN([C@@H](C)CO)C(=O)c2cc(NC(=O)Nc3ccc4c(c3)OCO4)ccc2O1	-0.5
30	C[C@H](CO)N1C[C@H](C)[C@@H](CN(C)S(=O)(=O)c2cccs2)Oc2c(NC(=O)c3ccncc3)cccc2C1=O	9.0

# The list continues:
entry	Structure	Ran FRET
31	C[C@H]1CN([C@@H](C)CO)C(=O)c2cccc(N(C)C)c2O[C@H]1CN(C)Cc1ccc(C(=O)O)cc1	0.5
32	CC(C)NC(=O)N(C)C[C@H]1Oc2ccc(NC(=O)CCC(F)(F)F)cc2C(=O)N([C@@H](C)CO)C[C@H]1C	-1.9
33	C[C@@H]1CN([C@H](C)CO)C(=O)Cc2cc(NC(=O)CCC(F)(F)F)ccc2O[C@H]1CN(C)S(=O)(=O)c1ccccc1	-1.2
34	COc1ccccc1NC(=O)N(C)C[C@@H]1OCc2cnnn2CCCC(=O)N([C@@H](C)CO)C[C@H]1C	?
35	COc1ccccc1CN(C)C[C@H]1OCc2cn(nn2)CCCC(=O)N([C@@H](C)CO)C[C@@H]1C	1.7
36	C[C@@H]1CN([C@H](C)CO)C(=O)Cc2cc(NC(=O)Nc3ccccc3)ccc2O[C@H]1CN(C)Cc1ccc(C(=O)O)cc1	-4.3
37	COc1ccc(NC(=O)Nc2cccc3c2O[C@H](CN(C)C(=O)Nc2ccccc2)[C@@H](C)CN([C@H](C)CO)C3=O)cc1	-0.6
38	CNC[C@H]1Oc2ccc(NS(=O)(=O)c3c(C)noc3C)cc2CC(=O)N([C@H](C)CO)C[C@H]1C	-0.1
39	COc1ccc(CN(C)C[C@@H]2Oc3ccc(NC(=O)Nc4ccc(F)cc4)cc3C(=O)N([C@@H](C)CO)C[C@@H]2C)cc1	8.7
40	C[C@H]1CN([C@@H](C)CO)C(=O)c2cccc(NC(=O)Nc3ccc(C(F)(F)F)cc3)c2O[C@@H]1CN(C)CC1CC1	0.3

# Other records follow:
entry	Structure	Ran FRET
41	COc1ccc(NC(=O)Nc2ccc3c(c2)CC(=O)N([C@@H](C)CO)C[C@@H](C)[C@@H](CN(C)S(=O)(=O)c2ccc(C)cc2)O3)cc1	-1.5
42	COc1ccc(S(=O)(=O)N(C)C[C@H]2Oc3ccc(NC(=O)Cc4cn(C)c5ccccc45)cc3C(=O)N([C@H](C)CO)C[C@H]2C)cc1	-3.0
43	C[C@@H]1CCCCO[C@@H](CN(C)C(=O)Cc2ccccc2)[C@H](C)CN([C@H](C)CO)C(=O)c2cc(NC(=O)c3ccncc3)ccc2O1	-4.7
44	C[C@H](CO)N1C[C@H](C)[C@H](CN(C)C(=O)Nc2ccccc2)Oc2c(NS(=O)(=O)c3ccccc3)cccc2C1=O	-0.8
45	C[C@@H]1CCCCO[C@H](CN(C)C(=O)C2CCCCC2)[C@H](C)CN([C@H](C)CO)C(=O)c2cc(NS(=O)(=O)c3ccccc3)ccc2O1	-2.4
46	C[C@@H]1CN([C@@H](C)CO)C(=O)Cc2cc(NC(=O)CCN3CCOCC3)ccc2O[C@@H]1CN(C)Cc1ccc(C(F)(F)F)cc1	-1.2
47	C[C@@H]1CN([C@@H](C)CO)C(=O)Cc2cc(NC(=O)Nc3ccc(F)cc3)ccc2O[C@@H]1CN(C)C(=O)NC1CCCCC1	2.3
48	Cc1noc(C)c1S(=O)(=O)Nc1ccc2c(c1)CC(=O)N([C@H](C)CO)C[C@@H](C)[C@@H](CN(C)Cc1ccc(C(F)(F)F)cc1)O2	-0.2
49	C[C@H](CO)N1C[C@H](C)[C@H](CN(C)S(=O)(=O)c2ccc(F)cc2)Oc2ncc(/C=C/c3ccccc3)cc2C1=O	-0.3
50	COc1ccc(S(=O)(=O)N(C)C[C@H]2Oc3ccc(NS(=O)(=O)c4cn(C)cn4)cc3CC(=O)N([C@H](C)CO)C[C@@H]2C)cc1	2.5

# New compounds follow.
entry	Structure	Ran FRET
51	C[C@@H]1CCCCO[C@@H](CN(C)Cc2ccccc2)[C@H](C)CN([C@H](C)CO)C(=O)c2cc(NC(=O)Nc3ccc4c(c3)OCO4)ccc2O1	1.1
52	COc1ccc(CN(C)C[C@@H]2Oc3c(NC(=O)C4CCOCC4)cccc3C(=O)N([C@H](C)CO)C[C@H]2C)cc1	1.4
53	C[C@@H]1CCCCO[C@@H](CN(C)C(=O)c2ccncc2)[C@H](C)CN([C@H](C)CO)C(=O)c2cc(NS(=O)(=O)c3ccccc3)ccc2O1	-1.0
54	Cc1noc(C)c1S(=O)(=O)N(C)C[C@@H]1Oc2c(NC(=O)c3nc4ccccc4s3)cccc2C(=O)N([C@@H](C)CO)C[C@@H]1C	-0.3
55	C[C@H](CO)N1C[C@H](C)[C@H](CN(C)S(=O)(=O)c2cccs2)Oc2c(NC(=O)C3CCOCC3)cccc2C1=O	3.6
56	CC(C)NC(=O)Nc1ccc2c(c1)C(=O)N([C@H](C)CO)C[C@H](C)[C@H](CN(C)C(=O)Nc1ccc(F)cc1)OCCCC[C@H](C)O2	0.7
57	COc1ccc(S(=O)(=O)N(C)C[C@H]2Oc3ccc(NC(=O)Nc4ccc5c(c4)OCO5)cc3C(=O)N([C@H](C)CO)C[C@H]2C)cc1	0.8
58	Cc1noc(C)c1S(=O)(=O)Nc1ccc2c(c1)C(=O)N([C@H](C)CO)C[C@H](C)[C@H](CN(C)C(=O)c1ccncc1)OCCCC[C@@H](C)O2	3.7
59	Cc1noc(C)c1S(=O)(=O)Nc1ccc2c(c1)C(=O)N([C@H](C)CO)C[C@H](C)[C@H](CN(C)C)OCCCC[C@@H](C)O2	1.0
60	C[C@H]1CN([C@@H](C)CO)C(=O)c2cc(N(C)C)ccc2O[C@H]1CN(C)Cc1ccc2c(c1)OCO2	-1.1

# (more compounds)
entry	Structure	Ran FRET
61	C[C@@H]1CN([C@H](C)CO)C(=O)c2cc(NC(=O)Nc3ccc4c(c3)OCO4)ccc2O[C@@H]1CN(C)S(=O)(=O)c1cccs1	0.5
62	C[C@H]1CN([C@@H](C)CO)C(=O)Cc2cc(NC(=O)c3ccncc3)ccc2O[C@@H]1CN(C)C(=O)Nc1ccc(F)cc1	0.9
63	Cc1noc(C)c1S(=O)(=O)Nc1ccc2c(c1)CC(=O)N([C@@H](C)CO)C[C@@H](C)[C@H](CN(C)C(=O)NC(C)C)O2	-2.4
64	C[C@@H]1CN([C@H](C)CO)C(=O)c2cc(NC(=O)Nc3ccccc3)ccc2O[C@@H](C)CCCCO[C@@H]1CN(C)C(=O)C1CCCCC1	1.0
65	C[C@@H]1CCCCO[C@H](CN(C)Cc2ccccc2)[C@H](C)CN([C@H](C)CO)C(=O)c2cc(NS(=O)(=O)c3ccccc3)ccc2O1	?
66	C[C@H](CO)N1C[C@H](C)[C@@H](CN(C)C(=O)Nc2ccc3c(c2)OCO3)OCCCC[C@H](C)Oc2ccc(NS(C)(=O)=O)cc2C1=O	-0.3
67	Cc1noc(C)c1NC(=O)Nc1cccc2c1O[C@H](CN(C)Cc1ccncc1)[C@@H](C)CN([C@H](C)CO)C2=O	-0.1
68	C[C@H]1CN([C@@H](C)CO)C(=O)Cc2cc(NC(=O)Cn3cnnn3)ccc2O[C@H]1CN(C)S(=O)(=O)c1ccccc1	0.6
69	Cc1noc(C)c1NC(=O)Nc1ccc2c(c1)C(=O)N([C@@H](C)CO)C[C@@H](C)[C@H](CN(C)C(=O)NC(C)C)OCCCC[C@H](C)O2	0.4
70	C[C@H](CO)N1C[C@H](C)[C@H](CN(C)C)Oc2ccc(NC(=O)NC3CCCCC3)cc2CC1=O	-2.4

# (list continues)
entry	Structure	Ran FRET
71	C[C@@H]1CN([C@@H](C)CO)C(=O)c2cccc(NC(=O)Nc3ccc(C(F)(F)F)cc3)c2O[C@H]1CN(C)C	-7.9
72	C[C@H]1CN([C@@H](C)CO)C(=O)Cc2cc(NC(=O)Nc3ccc4c(c3)OCO4)ccc2O[C@H]1CN(C)C(=O)Nc1ccc2c(c1)OCO2	4.4
73	Cc1noc(C)c1NC(=O)Nc1ccc2c(c1)C(=O)N([C@@H](C)CO)C[C@H](C)[C@H](CN(C)C(=O)C1CCCCC1)OCCCC[C@H](C)O2	-0.4
74	C[C@@H]1CN([C@@H](C)CO)C(=O)c2cccc(NS(C)(=O)=O)c2O[C@H]1CN(C)C	0.7
75	C[C@H]1CN([C@@H](C)CO)C(=O)c2cc(NC(=O)c3ccncc3)ccc2O[C@H]1CN(C)C(=O)Nc1ccc(F)cc1	1.2

# Bioassay records: PubChem BioAssay, Broad Institute

# An excerpt; count on the stated rates, not on these rows.
